Screening results from PubChem.
Mtb bLac sens = beta-lactam sensitization of Mtb H37Rv, H37Rv; M. tuberculosis H37Rv growth with meropenem, percent inhibition; hits of this screen are not shown here; inhibition, % at 25 µM; hit rate 0.27% among 330,000;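 active means about 74% or more and at least 40 points above the plate without the antibiotic, then above 30% in a dose series; inconclusive means first-round hits that could not be retested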;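 further: growth measured after seven days incubation then overnight dye step; 0% = bacteria only wells and 100% = bacteria with antibiotic; twin plates without the antibiotic show which effects depend on it; some results filed as inactive read as strong as hits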
Arbovirus inh = antivirals against arbovirus infection, primary screen, cell-based, full library, 10K replicate subset; AID 1251, 2008; arbovirus infection cell-based antiviral screen; inhibition, % at 10 µM; hit rate 0.37% among 200,000;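 active means inhibition from about 30%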;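 further: bluetongue infection of BSR cells; cell survival read as ATP light after 72 h; 0% = infected wells without compound and 100% = uninfected wells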
RecA splice inh = Mtb RecA intein splicing inhibitors, primary screen, biochemical, fluorescence, HTS; Protein RecA (Mycobacterium tuberculosis (strain ATCC 25618 / H37Rv)), P9WHJ3; cell-free RecA intein splicing; inhibition, %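 (about 9 µM by stock and volumes)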; hit rate 0.75% among 290,000; in the data active means inhibition above about 30%; inconclusive means no clear call, values can overlap the other calls;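 further: 0% = vehicle wells and 100% = reference inhibitor control wells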
Target sequence (P9WHJ3 whole entry, looked up, canonical isoform): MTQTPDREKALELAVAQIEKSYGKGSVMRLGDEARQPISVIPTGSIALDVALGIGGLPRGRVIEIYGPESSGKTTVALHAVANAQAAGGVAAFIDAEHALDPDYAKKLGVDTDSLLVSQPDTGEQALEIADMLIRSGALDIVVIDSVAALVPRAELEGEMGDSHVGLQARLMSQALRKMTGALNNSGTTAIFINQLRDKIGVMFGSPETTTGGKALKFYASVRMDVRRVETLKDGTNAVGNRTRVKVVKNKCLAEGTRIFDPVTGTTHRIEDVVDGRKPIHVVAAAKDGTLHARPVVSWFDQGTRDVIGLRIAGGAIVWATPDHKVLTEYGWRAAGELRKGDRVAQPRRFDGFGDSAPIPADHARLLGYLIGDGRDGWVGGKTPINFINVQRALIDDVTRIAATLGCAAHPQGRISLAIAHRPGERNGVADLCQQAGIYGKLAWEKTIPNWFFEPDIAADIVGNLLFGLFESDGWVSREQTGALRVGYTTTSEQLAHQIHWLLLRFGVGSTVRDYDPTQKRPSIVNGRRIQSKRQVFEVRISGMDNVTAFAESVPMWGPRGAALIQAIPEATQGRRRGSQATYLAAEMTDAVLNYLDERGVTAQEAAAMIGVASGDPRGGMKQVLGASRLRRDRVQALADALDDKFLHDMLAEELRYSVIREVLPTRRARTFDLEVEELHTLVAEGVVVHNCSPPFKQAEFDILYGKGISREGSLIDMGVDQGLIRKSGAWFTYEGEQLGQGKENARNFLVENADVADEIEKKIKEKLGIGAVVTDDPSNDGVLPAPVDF
YopH inh = YopH tyrosine phosphatase inhibitors, primary screen, biochemical, fluorescence Ex485/Em525. inhibition, %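 (about 10 µM by stock and volumes)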. hit rate 0.16% among 140,000. AID 898, 2007;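 active means inhibition of 50% or more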;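 further: controls were vehicle for no effect and minimum signal wells for full effect; inactives centre near -20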
Mtb growth = M. tuberculosis H37Rv growth inhibitors, H37Rv strain (AID 1626); M. tuberculosis H37Rv growth inhibition; higher % means a stronger effect; one-dose inhibition, % at 10 µM; IC50 in µM for titrated hits; hit rate 0.95% among 220,000;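 active means confirmed in a dose series; inconclusive means inhibition above 80% but not taken into the dose series; inactive means below 80% or under 30% at every dose of the series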;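 further: bacteria incubated seven days before Alamar blue readout; 0% = bacteria only wells and 100% = bacteria with antibiotic wells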
Arbovirus inh repeat = also measured in Arbovirus inh; calls as there; inhibition, %; measured here: 10K subset replicate screen; many hits read low in the repeat;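 first of two repeat runs on a subset; 0% = infected and 100% = uninfected wells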
* = called active by the depositor; ? = inconclusive; . = no result given. A portion of the library. The share of hits here may be higher or lower than overall.

SMILES	Mtb bLac sens	Arbovirus inh	RecA splice inh	YopH inh	Mtb growth	others
CCOc1cc(-c2nccc3cc(OC)c(OC)cc23)cc(OCC)c1OCC	8	.	0.8	.	.
NCCc1nnc(SCC(=O)Nc2cccc(Cl)c2)o1	3	.	-1.2	.	.
CCC/C=N/NC(=O)CNC(=O)c1ccccc1Cl	1	1	-0.9	.	-6%
CSCCC(NC(=O)c1cccc(S(=O)(=O)N2CCOCC2)c1)C(=O)Nc1cccc(C)c1 (stereo unspecified)	?	3	-1.2	1	2%
Nc1nnc(-c2cccc([N+](=O)[O-])c2)o1	-5	.	-5.1	.	9%
COc1ccc(S(=O)(=O)CC(=O)c2cc3cc(Br)ccc3oc2=O)cc1	-5	.	-1.6	.	.
CN1CCN(c2ccc([N+](=O)[O-])c(-n3nc(-c4ccccc4)c4ccccc4c3=O)c2)CC1	14	-12	.	-24	24%
Cc1cc(CSc2ccccc2)ccc1NC(=O)c1ccc(Cl)c([N+](=O)[O-])c1	-2	-9	3.1	-15	4%
CC(C)C[C@H](N)C(=O)N1CCC(C(=O)N[C@H](C(=O)NCc2ccc(F)cc2)C(C)C)CC1	-15	.	1.5	.	.
COCCn1nnnc1C(CC(C)C)N1CCN(c2ccccc2)CC1 (stereo unspecified)	-3	-1	-1.1	-17	2%
CCN1CCCC1CN(Cc1cc2c(C)cc(C)cc2[nH]c1=O)C(=O)NC1CCCCC1 (stereo unspecified)	6	-22	3.0	-25	2%
CC(C)c1ccc(OCC(=O)NC(=S)Nc2ccc3c4c(cccc24)CC3)cc1	-2	1	2.8	-119	-2%
CCCn1c(S(=O)(=O)O)nc2ccccc21	-2	.	-7.4	.	2%
O=C(CN1C(=O)S/C(=C\c2ccccc2Cl)C1=O)NCCCn1ccnc1	-2	.	4.7	.	.
COc1cccc(-c2nc(CS(=O)(=O)CC(=O)NCCCN3CC(C)CC(C)C3)c(C)o2)c1 (stereo unspecified)	-4	.	1.6	.	.
Cc1ccccc1-c1nc(CN2CCC(C(=O)NCc3ccco3)CC2)c(C)o1	-4	4	0.7	-42	-4%
Cc1ccc(C(C#N)c2ccc3c(C(F)(F)F)cc(C(F)(F)F)nc3n2)cc1 (stereo unspecified)	-5	-6	3.4	-34	12%
COc1ccc(NS(=O)(=O)c2ccc(NC(=S)NC(=O)C(C)C)cc2)cc1	-6	4	4.6	-40	2%
O=C(c1cc2nc(-c3ccco3)cc(C(F)(F)F)n2n1)N1CCN(c2ccc(F)cc2)CC1	-8	17	.	-27	46%
CC1(C)Cc2c(sc3c2c(N)nc(=S)n3Cc2ccc(Br)cc2)CO1	-1	.	-2.9	.	5%
Cc1nnc(OCC(=O)NCCC2=CCCCC2)c2ccccc12	-2	-4	-0.7	-5	-15%
Cc1[nH]c2ccccc2c1C(=O)CSc1nc2ccccc2[nH]1	4	8	-3.2	-7	0%
O=C(Nc1ccc(C(=O)NCCCN2CCN(c3ccccc3)CC2)cc1)C1=CSCCO1	-2	.	1.3	.	.
Cc1ccc(C)c(NC(=O)c2cc(-c3cc(C)ccc3O)n[nH]2)c1	73	.	0.1	.	.
CCOc1cc(/C=C\[N+](=O)[O-])ccc1OCC(=O)N1CCOCC1	-7	-33	0.0	.	0%
C/C(CC(=O)Nc1ccc(C)c(Cl)c1)=N\NC(=O)Cc1ccccc1	79	-2	-2.3	-18	79%
O=C(Nc1ccccc1C(=O)N1CCNCC1)c1ccco1	2	7	-0.2	-16	-1%
c1ccc(C(Cc2nc(-c3ccncc3)no2)c2ccccc2)cc1	-11	-5	-0.1	34	.
O=C(CN1CC(=O)Oc2ccccc21)NCc1ccco1	14	-6	11	-63	1%
CC(NCC(=O)Nc1cc(S(=O)(=O)N2CCOCC2)ccc1Cl)c1ccc(Cl)cc1Cl (stereo unspecified)	2	.	7.7	.	.
C(#CC1CCCC1)c1ccc2c(c1)COc1c3ccccc3nn1-2	99	.	-3.1	.	-8%
CCCCn1c(SCC(N)=O)nnc1-c1cc(OC)c(OC)c(OC)c1	.	-9	-2.3	-58	3%
CCc1ccc(NC(=S)N2CCCC(C(F)(F)F)C2)cc1 (stereo unspecified)	-2	-5	1.8	.	-1%
O=C(C[C@H]1C(=O)N(CCc2ccccc2)C[C@@H]1Cc1ccccc1)Nc1ccccc1	-6	.	0.9	.	.
CC(=O)c1ccc(NC(=O)C2CCN(S(=O)(=O)c3ccc4c(c3)N(C(C)=O)CCO4)CC2)cc1	4	.	-0.1	.	.
OC(CN1C2=NCCN2c2ccccc21)c1ccccc1 (stereo unspecified)	2	19	0.6	-51	-2%
O=C(Nc1ccc(N2CCCCC2)cc1)c1ccc(F)cc1F	18	.	-2.0	.	6%
CCOc1ccc2ccccc2c1/C=N/NC(=O)CNC(=O)C(c1ccccc1)c1ccccc1	-1	-6	.	-21	1%
CC(C)CN(C(=O)c1ccc(S(=O)(=O)N2CCCC2)cc1)C1CCS(=O)(=O)C1 (stereo unspecified)	-9	.	1.3	.	.
Cc1cc(Oc2ccccc2)nc(SCC(=O)Nc2ccccc2)n1	-6	0	-1.2	1	-1%

Five records picked at random from those above:
SMILES	Mtb bLac sens	Arbovirus inh	RecA splice inh	YopH inh	Mtb growth	others
Cc1ccc(C(C#N)c2ccc3c(C(F)(F)F)cc(C(F)(F)F)nc3n2)cc1 (stereo unspecified)	-5	-6	3.4	-34	12%
Cc1[nH]c2ccccc2c1C(=O)CSc1nc2ccccc2[nH]1	4	8	-3.2	-7	0%
O=C(CN1CC(=O)Oc2ccccc21)NCc1ccco1	14	-6	11	-63	1%
Cc1cc(Oc2ccccc2)nc(SCC(=O)Nc2ccccc2)n1	-6	0	-1.2	1	-1%
CC(=O)c1ccc(NC(=O)C2CCN(S(=O)(=O)c3ccc4c(c3)N(C(C)=O)CCO4)CC2)cc1	4	.	-0.1	.	.

(more compounds)
SMILES	Mtb bLac sens	Arbovirus inh	RecA splice inh	YopH inh	Mtb growth	others
CSC(=NC#N)N1CCN(c2ccc([N+](=O)[O-])cc2)CC1	1	4	-0.4	.	13%
CN1c2ccccc2C(O)=C(C(=S)Nc2ccc(F)c(Cl)c2)S1(=O)=O	2	9	3.6	-32	10%
O=S(=O)(Nc1cc(Cl)ccn1)c1ccc(Cl)cc1	-10	4	6.5	-8	-6%
CCCOP(=O)(OCCC)c1nc(-c2ccccc2)oc1NCc1ccccc1	-3	-4	-0.3	-50	5%
O=C(c1cc(COc2ccc(F)cc2Cl)on1)N1CCCC(c2ccccc2)C1 (stereo unspecified)	47	-10	.	.	2%
CCn1c(SCC(=O)Nc2nc(C)c(C)s2)nnc1-c1ccco1	?	4	-0.2	-21	1%
CC(=O)C1=C(O)C(=O)N(c2ccc(O)cc2)C1c1ccc([N+](=O)[O-])cc1 (stereo unspecified)	9	-2	3.0	.	-8%
O=Nc1c(O)n(Cc2ccc(Cl)cc2Cl)c2ccccc12	0	-31	.	-28	-3%
CCOC(=O)c1ccccc1NS(=O)(=O)c1ccccc1F	-5	0	-4.8	-38	8%
COc1cc(C(=O)Oc2cc(N)n(S(=O)(=O)c3ccccc3)n2)cc(OC)c1OC	4	.	11	.	.
COc1ccc(N(C(=O)c2ccncc2)S(=O)(=O)c2cccs2)cc1	0	.	8.2	.	8%
C=CCSc1nc(NC)c2sccc2n1	8	8	-2.9	-26	64%
N#Cc1ccccc1OCCN1C(=O)c2ccccc2C1=O	-4	1	6.8	27	1%
O=C(COC(=O)c1ccc(Cl)c([N+](=O)[O-])c1)Nc1ccccc1OC(F)F	31	4	-4.6	-12	6%
O=C(NNC(=O)c1ccc(SCC2CCCO2)c([N+](=O)[O-])c1)c1ccc(Cl)c([N+](=O)[O-])c1 (stereo unspecified)	-4	17	-4.7	8	9%
COc1ccc(C(=O)NCCS(=O)(=O)NCc2ccc3c(c2)OCO3)cc1	0	.	2.7	.	.
CCN(CC)S(=O)(=O)c1cc(C(=O)OCC(=O)c2ccc3c(c2)NC(=O)CO3)ccc1F	-5	5	2.1	1	-6%
CCOC(=O)c1cccc(N2C(=O)c3ccccc3S2(=O)=O)c1	7	15	-1.3	-21	.
O=C(NCc1ccc(Cl)cc1)N1CCN(S(=O)(=O)c2ccccc2)CC1	-4	.	-0.9	.	.
CCOC(=O)Nc1cc2c(cc1C(C)=O)OCO2	1	6	0.2	-15	-8%
CC(C)(C)OC(=O)N1CCC[C@H]1C(=O)O	-6	.	-0.3	.	.
O=C(O)Cc1coc2cc3c(cc12)CCC3	2	17	-1.4	.	9%
CN(C)S(=O)(=O)c1ccc(C(=O)NCc2ccccn2)cc1	3	9	-1.0	.	5%
Cc1ccc(/C=N/NC(=O)c2nnn(-c3nonc3N)c2-c2ccccc2)o1	9	.	-1.1	.	.
CCn1c(Oc2ccccc2F)nc2c1c(=O)n(C)c(=O)n2C	2	.	-0.8	.	.
CC(=O)c1ccc(N2CCN(c3ccc(S(=O)(=O)NCCN(C)C)cc3[N+](=O)[O-])CC2)cc1	-2	.	4.4	.	3%
O=C(Nc1ccc2nc3ccccc3nc2c1)c1ccccc1	-7	-24	-18	-21	-16%
CCc1ccc(CNC(=O)C2CCCN(c3nc4ccccc4o3)C2)cc1 (stereo unspecified)	-8	1	1.4	6	0%
Nc1cc(=O)n(Cc2ccccc2)c(=O)n1-c1ccc(Cl)cc1	3	.	-5.3	.	7%
C=CC[N+]1(CC#CCOC(c2ccccc2)c2ccccc2)CCOCC1	-7	-2	-1.6	-32	4%
O=C(O)CC(CC(=O)N1CCOCC1)c1ccccc1 (stereo unspecified)	-1	.	-1.9	.	.
COc1ccc(/C=N/Nc2nc(=O)[nH]nc2C)cc1[N+](=O)[O-]	5	-5	.	-27	-3%
O=C(CSc1ncn[nH]1)Nc1ccccc1Sc1ccc(Cl)cc1	1	-5	-2.5	-10	12%
Nc1nc(Nc2ccccc2Cl)cc(=O)[nH]1	-1	.	0.3	.	-3%
CCCOc1cccc(C2C(C(=O)c3ccco3)=C(O)C(=O)N2CCN(CC)CC)c1 (stereo unspecified)	-2	13	0.9	-16	-7%
COC(=O)c1ccc(NC(=O)C(=O)N2CCN(C(=S)NCCc3ccccc3)CC2)cc1	16	-1	-1.7	-7	39%
Cc1ccc(N=Nc2ccc(C)cc2NC(=O)Nc2ccccc2F)cc1	9	.	1.1	.	-4%
Cc1ccc(-n2nnc(-c3nccn3C)n2)cc1	-4	3	-1.3	.	-12%
O=C(NCc1ccco1)C(c1ccccc1)N(C(=O)Cc1cccs1)c1ccccc1 (stereo unspecified)	-10	-1	-0.4	-23	-2%
CC(C)(C)c1ccc(NC(=O)C(=O)C2C(=O)Nc3ccccc32)cc1 (stereo unspecified)	29	14	0.0	.	-4%
Cc1ccc(C2C(C#N)=C(N)N(c3cccnc3)C3=C2C(=O)CCC3)s1 (stereo unspecified)	0	3	0.0	.	-1%
COc1ccc(/C(C)=N/NC(=O)CNC(=O)C(c2ccccc2)c2ccccc2)c(OC)c1	3	.	1.9	.	.
CCOC(=O)C1=C(N)OC2=C(C(=O)CC(C)(C)C2)C1c1ccccc1OCC#N (stereo unspecified)	8	5	-1.2	-25	-5%
COCCCNC(=O)C(=O)NC1CCCCCC1	2	1	3.7	-22	2%
O=C(CCN1C(=O)c2ccccc2C1=O)Nc1ccc(S(=O)(=O)NC2=NCCCCC2)cc1	2	-2	.	-29	-7%
Cn1c(=O)cc(N2CCCCC2)[nH]c1=O	0	2	-1.4	-1	-4%	Arbovirus inh repeat=-2
Cc1ccccc1NC(=O)Nc1ccc(C(F)(F)F)cc1	99	21	2.3	.	>100µM*
Cc1ccc(S(=O)(=O)N2CCC(C(=O)OCc3c(C)noc3C)CC2)cc1C	-11	.	3.7	.	.
Cc1csc(NC(=O)C2CCCN(S(=O)(=O)c3ccc(Br)s3)C2)n1 (stereo unspecified)	4	14	4.7	-4	3%
Cc1cc(=O)n(CC=C(Cl)Cl)c2ccccc12	-4	-5	5.1	-26	-9%
Cc1cc(NS(=O)(=O)c2ccc(NC(=O)C(CC(C)C)N3C(=O)c4ccccc4C3=O)cc2)nc(C)n1 (stereo unspecified)	5	-1	1.3	-9	-12%
CCN(CC)CC(=O)Nc1ccc(C)cc1Br	48	0	-3.1	-21	4%
CCC(C)(C)NC(=O)Nc1cc(Cl)ccc1OC	-7	12	3.0	.	7%

Molecules listed so far containing a COOH group (3):
SMILES	Mtb bLac sens	Arbovirus inh	RecA splice inh	YopH inh	Mtb growth	others
CC(C)(C)OC(=O)N1CCC[C@H]1C(=O)O	-6	.	-0.3	.	.
O=C(O)Cc1coc2cc3c(cc12)CCC3	2	17	-1.4	.	9%
O=C(O)CC(CC(=O)N1CCOCC1)c1ccccc1 (stereo unspecified)	-1	.	-1.9	.	.
